Rango dissoc inh = inhibitors of RanGTP-induced Rango-importin beta complex dissociation; O95149+P62826; Biochemical FRET Rango-importin beta, RanGTP-induced dissociation; Potency, µM (doses to about 46.1 µM), inactives show at the highest dose activity change, negative = inhibition; actives 0.071% (n = 340,000); AID 540253; active means falling FRET ratio curve, often poorly fitted, with flat reads before Ran was added; inconclusive means other falling curves, or compound fluorescence or quenching; inactive means flat or rising ratio curve;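 note: potency is the fitted concentration of half-maximal effect; % of control where 0% means no effect; nearly all actives have a fitted effect of over 45% in size; -100% = wells without RanGTP and RCC1; the record marks most hits as doubtful in a second field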
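Recombinant Rango FRET biosensor (EYFP–snurportin 1 IBB–cerulean CFP10) at 0.1 uM premixed with 0.25 uM importin beta in PBS, 1 mM DTT, 0.02% Tween-20, 0.1% BSA. Compound added 5 min; RanGTP-RCC1 (0.6 uM Ran, 2 mM GTP, 0.2 uM RCC1) then triggers release, read at 45 min.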
miR-21 reporter = miR-21 reporter, rising signal. HeLa miR-21 FLuc reporter, luciferase, 48 h. Potency, µM (series often up to 38.3 µM), without a hit: at the highest dose reporter change, positive = more light. 340,000 tested, under 10 active; active = well fitted rising curve with a large enough effect; inconclusive = small, poorly fitted or top-dose-only effect; inactive = no such curve, though single readings can be large or run the other way;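 note: % of control where 0% means no effect; miR-21 action dims this reporter so a rising signal means less miR-21 action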
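Using DMEM plus 10% FBS, HeLa miR-21-FLuc cells are incubated with test compounds (final up to about 40uM) for 48 hours; firefly luciferase signal is then imaged following reagent-mediated lysis.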
GLA inh pH 4.5 = alpha-galactosidase A (human) inhibition, pH 4.5. P06280. purified enzyme, 4-MU-alpha-Gal fluorescence, pH 4.5. activity change, negative = inhibition, % at 105 µM. 230,000 tested, under 10 active; inconclusive = small, poorly fitted or top-dose-only inhibition, or a rising curve; inactive = flat fitted curve, though single readings scatter; no compound was filed as active;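 note: 0% = full activity with enzyme and -100% = basal without enzyme; dose as in the result columns while the protocol names 77 µM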
Target sequence (P06280 whole entry, looked up): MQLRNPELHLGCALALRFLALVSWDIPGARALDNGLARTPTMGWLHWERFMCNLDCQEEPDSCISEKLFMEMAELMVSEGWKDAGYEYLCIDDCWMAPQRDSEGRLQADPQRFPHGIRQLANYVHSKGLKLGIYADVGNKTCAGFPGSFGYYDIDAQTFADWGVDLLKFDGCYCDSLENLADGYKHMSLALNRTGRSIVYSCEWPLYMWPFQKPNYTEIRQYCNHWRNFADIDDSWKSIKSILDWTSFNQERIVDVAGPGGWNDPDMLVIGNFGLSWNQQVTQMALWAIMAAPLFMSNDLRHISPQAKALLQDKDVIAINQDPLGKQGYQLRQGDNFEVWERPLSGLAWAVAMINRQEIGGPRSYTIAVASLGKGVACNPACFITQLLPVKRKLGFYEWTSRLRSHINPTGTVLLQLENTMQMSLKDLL
Rango-impB inh = inhibitors of Rango-importin beta complex formation. actives 0.031% (n = 340,000). AID 540263. Rango CFP/YFP FRET sensor + importin beta, 45 min. Potency, µM (top dose mostly 92.2 µM), for inactives: at the highest dose inhibition of complex formation. Q14974; active = rising FRET ratio curve, often small or poorly fitted; inconclusive = mostly compound fluorescence or quenching in the first reads; inactive = flat curves in all reads;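 note: potency is the fitted concentration of half-maximal effect; 0% = DMSO wells and 100% = buffer wells lacking importin beta; nearly all actives have a fitted effect of over 15% in size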
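Inhibition scored from the CFP 486 nm/YFP 530 nm FRET ratio 45 min after adding 0.125 microM importin beta to 50 nM Rango biosensor preincubated 5 min with compound (room temperature, PBS with DTT, Tween-20, BSA). No-importin wells as positive control.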
Active calls of the source: *; ? = inconclusive; · = no result given; & = joins results of further samples.

Results follow in this order: Rango dissoc inh | miR-21 reporter | GLA inh pH 4.5 | Rango-impB inh
- O=C(C1=C[C@@H](c2csc3ccccc23)C[C@@H](OCc2ccc(CO)cc2)O1)N1CCN(Cc2ccccc2)CC1
    -14.7% | 11.9% | -4.4 | -4.0%
- CCOC(=O)c1c(C)n(CC(COC(C)=O)OC(C)=O)c2ccc(OC(C)=O)cc12 (centres undefined)
    1.6% | 0.5% | 3.3 | -0.6%
- Fc1ccc(CN2CCCN(C(=S)Nc3ccc(F)cc3)CC2)cc1
    8.6% | -5.5% | -13.9 | -2.3%
- COc1ccc(O)c(C(=O)CC(=O)c2ccncc2)c1
    7.5% | · | · | 4.3%
- CC(=O)N=c1sccn1CC(=O)c1ccc([N+](=O)[O-])cc1
    3.1% | -3.8% | -15.2 | ?
- O=C(Cn1nnc(-c2ccccc2)n1)NC(=O)NC1CCCC1
    4.9% | · | · | 0.0%
- COC(=O)c1sc(NC(=O)CSc2nc3cccnc3n2C)nc1C
    -14.5% | -1.5% | · | 0.9%
- CNc1nc2ccccc2n1/N=C/c1cccc(OC)c1OC
    5.8% | -5.5% | 6.1 | 2.4%
- COc1ccc(NC(=O)CN(C)C(=O)Cc2ccc3c(c2)CCC3)cc1
    -3.7% | -5.0% | · | -1.6%
- CC(C)Oc1cc2ccccc2cc1CNC[C@H]1O[C@@H](n2cnc3c(N)ncnc32)[C@H](O)[C@@H]1O
    ? | · | · | ?
- C=CCCC(=O)N1CCC(Oc2cccc(C(=O)NCc3ccccn3)c2)CC1
    9.2% | 2.9% | · | 0.8%
- O=C1CN(C(=O)c2ccco2)c2ccccc2N1
    -9.8% | 0.5% | 1.8 | 0.1%
- N#CCC(=O)N/N=C\c1cc(Br)ccc1OC/C=C/c1ccccc1
    -8.8% | -39.4% | · | -0.2%
- C=CCOc1ccccc1/C=N/NC(=O)Cc1ccccc1
    23.9% | -6.4% | · | 0.2%
- N#CCCN(C(=O)COC(=O)/C=C/c1cccs1)c1ccccc1
    -3.4% | · | · | -2.8%
- O=C(c1ccc(Nc2cccc(C(F)(F)F)c2)nc1)N1CCCC1
    -6.0% | -26.1% | -1.3 | 0.0%
- COc1cccc(CNc2ccc([N+](=O)[O-])cc2C)c1
    -2.7% | 0.7% | 1.8 | 0.7%
- Cc1ccccc1OCc1nnc2c3cnn(C)c3ncn12
    5.8% | -25.7% | 9.5 | -0.9%
- CCOC(=O)C1(C(F)(F)F)N=C(c2cccnc2)OC(N2CCCCC2)=N1 (centres undefined)
    7.2% | -10.2% | 1.5 | 3.8%
- COc1ccccc1N1CCN(C(=S)Nc2ccc(S(=O)(=O)N3CCOCC3)cc2)CC1
    5.8% | 16.4% | -0.9 | -1.5%
- Cc1ccc(CNS(=O)(=O)c2ccc3oc(C(=O)O)c(C)c3c2)cc1
    1.1% | -0.7% | -6.1 | 0.4%
- Cc1nc(NCCc2ccccc2)c2nnn(Cc3ccccc3Cl)c2n1
    ? | -0.7% | · | ?
- COCCNC(=O)COc1cccc2c1OC(C)(C)C2
    16.0% | -0.9% | 7.8 | -0.7%
- CCOC(=O)NC(=O)c1cn(C(CC)CO)c(=O)[nH]c1=O (centres undefined)
    -4.8% | -3.9% | 4.8 | 1.8%
- CCN(CC(=O)Nc1ccc2c(c1)OCCO2)C(=O)c1ccc(CS(C)(=O)=O)cc1
    5.5% | · | · | -3.0%
- COc1ccccc1NC(=S)Nc1ccccc1F
    -7.3% | -4.2% | -0.1 | 2.1%
- CN1CCN(C(=O)CN2C(=O)COc3ccc(S(=O)(=O)N4CCOCC4)cc32)CC1
    0.2% | 0.0% | · | -1.7%
- CC(C)CC(=O)NCC(C)NC(=O)CC(C)C (centres undefined)
    -1.9% | -1.4% | -11.6 | -2.9%
- CC(=O)c1cccc(OCC(=O)N(CCC2=CCCCC2)c2c(N)n(Cc3ccccc3)c(=O)[nH]c2=O)c1
    0.0% | · | · | -5.5%
- CC(C)CN(C(=O)COc1ccc([N+](=O)[O-])cc1)c1c(N)n(CC(C)C)c(=O)[nH]c1=O
    -6.0% | · | · | 0.4%
- O=C(N=c1ccn(-c2nc3ccccc3nc2NS(=O)(=O)c2ccccc2)cc1)c1cccs1
    ? | -11.6% | 3.0 | ?
- COc1ccc(CNC(=O)CN(C)S(=O)(=O)c2ccc3c(c2)OCCO3)cc1OC
    23.2% | · | · | 2.3%
- CCCCn1c(N)c(N(CCOC)C(=O)CN2C(=O)c3ccccc3C2=O)c(=O)[nH]c1=O
    -3.9% | -1.0% | · | -2.6%
- Cc1ccc(C(=O)O/N=C2\CCSc3ccc(C)cc32)cc1
    -10.7% | -1.5% | -0.5 | 2.9%
- CCCc1cc(C(=O)Nc2ccc(OC)cc2[N+](=O)[O-])cs1
    7.5% | -36.9% | · | -0.7%
- COc1cccc(-n2cc3c(c2-c2ccccc2)c(=O)n(C)c(=O)n3C)c1
    17.1% | -30.8% | -5.2 | 0.1%
- COc1ccc(N=C2SC(C(N)=O)CC(=O)N2Cc2ccc3c(c2)OCO3)cc1 (centres undefined)
    -12.3% | -2.4% | -2.0 | -1.6%
- N#CC1(NC(=O)COC(=O)C2=COCCO2)CCCCC1
    -2.1% | · | · | 0.4%
- Cc1ccc2ccccc2c1CSc1nc(N)nc2c1ncn2CC(C)C
    -2.7% | · | · | 0.1%
- O=C(O)Cn1c(SCc2cccc3ccccc23)nc2ccccc21
    -3.6% | -5.8% | 11.3 | -0.5%
- O=C(c1ccco1)N1CCN(CC(=O)N2c3ccccc3CCc3ccccc32)CC1
    9.3% | -0.7% | 6.1 | 3.2%
- N#C/C(=C/c1ccc(O)c([N+](=O)[O-])c1)C(=O)Nc1ccccc1
    2.9% | 14.0% | 4.4 | -1.4%
- C=CCNCCCOc1ccc(Cl)cc1Br
    -11.4% | -39.1% | -1.0 | 10.4%
- COC(=O)c1cc(-n2cccc2)ccc1N1CCOCC1
    2.6% | -3.7% | -0.6 | -4.9%
- CCOC(=O)Nc1ccc2c(c1)N(C(=O)CCN(CC)CC)c1ccccc1S2=O (centres undefined)
    12.6% | ? | · | -1.5%
- COCCN(Cc1cc2cc3c(cc2nc1Cl)OCO3)C(=O)c1ccc(C)cc1
    ? | 17.9% | -6.2 | -6.9%
- CN(C)c1nc(N)c2ncc(=S)[nH]c2n1
    ? | 1.9% | -2.6 | ?
- C=CCSc1nnc(NC(=O)c2cccc(S(=O)(=O)N3CCOCC3)c2)s1
    -5.3% | 2.6% | -6.5 | 2.1%
- O=C(Nc1cccc(F)c1)NC1(C(=O)N2CCC(O)CC2)CCCCC1
    4.1% | 0.6% | · | 6.3%
- CN1CCC(=O)N([C@H](CSc2ccc(Br)cc2)Cc2ccccc2)CC1
    0.4% | -4.3% | -8.0 | -0.2%
- CC(=O)c1c(C)[nH]c(C)c1C(C)=O
    -3.0% | 1.5% | 0.9 | -3.7%
- N#CCc1nn(Cc2ccc(F)cc2)c(=O)c2ccccc12
    -12.1% | -12.0% | · | 3.7%
- COc1ccc(S(=O)(=O)N2CCN(C(=O)CCNC(=O)c3ccccc3Cl)CC2)cc1
    -18.3% | · | · | 0.8%
- CC(NC(=O)C(Cc1ccccc1)n1cccc1)c1ccccc1 (centres undefined)
    10.3% | -0.5% | -7.0 | 6.5%
- COC(CNC(=O)Cc1c(C)nc2c(-c3ccccc3)c(C)nn2c1C)OC
    7.2% | -0.8% | 11.1 | ?
- COc1ccc2c(c1)c(C(=O)CNc1nc(C)cs1)c(C)n2C
    15.7% | -7.3% | -1.5 | -8.2%
- Cc1cc(C(=O)NP(=O)(N2CC(C)OC(C)C2)N2CC(C)OC(C)C2)c(C)n1C1CC1 (centres undefined)
    -10.0% | -0.2% | 5.4 | ?
- Cc1ccc(C(=O)NN2C(=O)C3C4C=CC(C5CC45)C3C2=O)cc1 (centres undefined)
    -6.6% | -16.1% | 1.2 | -3.3%
- CCCOC(=O)NC1C(NC(=O)OCCC)N(C)C(=O)N1C (centres undefined)
    -15.7% | 0.8% | -0.5 | 6.5%
- O=C(NCCNc1ccccc1[N+](=O)[O-])c1cc(F)c(F)cc1Cl
    -13.6% | -40.7% | · | 0.1%

Continuation.
Results follow in this order: Rango dissoc inh | miR-21 reporter | GLA inh pH 4.5 | Rango-impB inh
- COc1ccc(-n2cnnc2SCC(=O)N2CCN(c3ccccc3)CC2)cc1
    -15.3% | -2.2% | -6.0 | 1.2%
- CCOc1ccccc1NC(=O)c1cc(C(=O)c2cc(OC)ccc2O)coc1=N
    ? | -6.8% | -6.1 | ?
- CCC(C(=O)N1CCN(S(C)(=O)=O)CC1)c1ccccc1 (centres undefined)
    7.8% | -10.1% | 2.4 | -3.3%
- O=C(Nc1ccc(C(F)(F)F)cc1)c1ccc(NC(=O)C2CCCO2)cc1 (centres undefined)
    19.3% | 12.7% | · | -1.6%
- NS(=O)(=O)c1ccc(CNC(=O)c2cccnc2Cl)cc1
    4.0% | -1.6% | · | 3.0%
- CC1CN(Cc2nc3ccccc3c(=O)[nH]2)CC(C)O1 (centres undefined)
    5.8% | 2.6% | 0.2 | ?
- CC(C)c1ccc(CN(C(=O)c2cc3ccccc3oc2=O)C2CCS(=O)(=O)C2)cc1 (centres undefined)
    -8.7% | -26.7%&-17.1% | 1.3 | -3.9%
- Cc1cc(C)cc(NC(=O)CSc2nnc(NC(=O)C3CC3)s2)c1
    -8.9% | 7.8% | · | -3.5%
- COc1ccccc1/C=C/C1=NC(=C\C=C/c2ccccc2)/C(=O)O1
    ? | -11.8% | -4.0 | ?
- CCn1c(C(=O)NC(C)c2ccc3c(c2)OCCO3)cc2sccc21 (centres undefined)
    -23.8% | 15.0% | -2.3 | -0.3%
- O=C(Nc1ccc2c(c1)OCCO2)Nc1ccc2c(c1)OCO2
    -0.3% | 10.7% | 5.6 | 0.0%
- COC(=O)/C(N=Nc1cccc(C(F)(F)F)c1)=C(\C)O
    11.9% | -9.9% | -2.3 | -3.3%
- COc1cccc(-c2cc3nc4c(c(NCC(C)(C)CN(C)C)n3n2)CCCC4)c1
    22.9% | -3.7% | 2.2 | 2.6%
- Cc1noc(C)c1CSc1ccc2ccccc2n1
    3.9% | -22.5% | 1.2 | -0.5%
- CCC(C)(CCNC(=O)Cc1ccccc1)c1ccccc1OC (centres undefined)
    11.8% | -0.5% | · | 0.3%
- NC(=O)[C@@H]1CCCN1Cc1nc(-c2ccccc2)no1
    -0.1% | 1.3% | 2.9 | -0.4%
- CC1CCCN(c2ccc(N)cc2C(N)=O)C1 (centres undefined)
    0.3% | 4.0% | -0.6 | -3.2%
- COc1cc(/C=C/C(=O)c2ccc(C)c([N+](=O)[O-])c2)cc(OC)c1O
    -5.3% | ? | -12.7 | 0.1%
- CCOc1ccc(CC2NCCc3cc(OCC)c(OCC)cc32)cc1OCC (centres undefined)
    -0.7% | 6.0% | -4.0 | -1.2%
- Cc1cc(C)c(OCC(=O)NCC2COc3ccccc3O2)c(C)c1 (centres undefined)
    0.2% | · | · | 0.1%
- Cc1ccsc1CN(C)C(=O)CN1C(=O)NC2(CCCCC2C)C1=O (centres undefined)
    20.6% | · | · | -2.6%
- CCC(C)NC(=O)c1ccc(CNS(=O)(=O)c2ccc3c(c2)C(C)(C)C(=O)N3C)cc1 (centres undefined)
    -7.9% | 2.9%&1.1% | · | -2.5%
- CCOc1ccc(N2C(=O)C3CC(C)=C(C)CC3C2=O)c([N+](=O)[O-])c1 (centres undefined)
    -25.0% | -1.5% | 2.3 | 1.3%
- CCCCCC(=O)Nc1ccc(N2CCN(S(C)(=O)=O)CC2)cc1
    6.7% | -3.8% | -4.7 | -2.9%
- COc1cc(C(CC(=O)Nc2cccc(C)n2)N2Cc3ccccc3C2=O)cc(OC)c1OC (centres undefined)
    -5.2% | 1.0% | · | -1.0%
- Cn1c(=O)[nH]c(=O)c2c1nc1n2CCS1
    -2.6% | -2.5% | -8.1 | -3.3%
- Cc1nnc(SCC(=O)Nc2ccc(N3CCN(S(C)(=O)=O)CC3)cc2)o1
    -8.7% | -0.8% | · | 1.1%
- COc1cc(CN2CCC(C(N)=O)CC2)ccc1OCc1ccccc1
    14.2% | -41.1% | · | 0.0%
- Cc1cc(C)c(Nc2ncccc2C(=O)O)c(C)c1
    ? | 2.9% | 1.8 | 4.2%

A portion of the library; count on the stated rates, not on these rows.
